# Six1-Eya2 inh = inhibitors of human Six1/Eya2 interaction. Q15475+O00167. AlphaScreen GST-Six1/His-Eya2 binding, biochemical; hits give low values; control for the full effect not named in the record. activity change, % (no concentration beside the values). actives 0.56% (n = 360,000); in the data active = activity change below about -65%; inconclusive = about -30% to -65%; inactive = above about -30%; note: % is set by controls: 0 for no effect and ±100 for the full control effect; compound concentration not given in the record
# Target sequence (O00167 whole entry, looked up): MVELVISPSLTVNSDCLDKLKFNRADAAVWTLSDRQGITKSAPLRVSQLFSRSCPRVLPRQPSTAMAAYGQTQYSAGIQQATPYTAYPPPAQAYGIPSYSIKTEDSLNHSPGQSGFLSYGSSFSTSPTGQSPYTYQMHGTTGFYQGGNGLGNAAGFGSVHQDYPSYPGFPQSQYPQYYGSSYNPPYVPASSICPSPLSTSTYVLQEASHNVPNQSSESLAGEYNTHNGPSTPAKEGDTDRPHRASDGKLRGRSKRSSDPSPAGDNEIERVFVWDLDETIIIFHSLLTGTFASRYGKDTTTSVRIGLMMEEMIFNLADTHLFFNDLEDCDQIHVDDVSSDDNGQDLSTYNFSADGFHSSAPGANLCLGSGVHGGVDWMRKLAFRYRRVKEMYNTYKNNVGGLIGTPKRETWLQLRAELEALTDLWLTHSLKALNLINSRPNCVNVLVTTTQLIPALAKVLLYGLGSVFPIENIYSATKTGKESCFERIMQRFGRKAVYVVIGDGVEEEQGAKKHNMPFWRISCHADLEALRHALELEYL
# Target sequence (Q15475 whole entry, looked up): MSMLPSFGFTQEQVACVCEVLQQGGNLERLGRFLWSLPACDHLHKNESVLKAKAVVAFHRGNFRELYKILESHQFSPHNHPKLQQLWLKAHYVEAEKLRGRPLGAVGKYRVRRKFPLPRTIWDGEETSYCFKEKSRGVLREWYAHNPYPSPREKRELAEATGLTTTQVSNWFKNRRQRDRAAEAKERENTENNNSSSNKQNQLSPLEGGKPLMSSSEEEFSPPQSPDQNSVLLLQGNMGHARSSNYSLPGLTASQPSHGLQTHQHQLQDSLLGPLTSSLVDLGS
#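 Homogeneous AlphaScreen proximity assay pairing GST-Six1 with His-tagged Eya2 (added as 5X mix: 250 nM and 500 nM) in 50 mM Tris pH 8.0, 300 mM NaCl, 1 mM TCEP. Glutathione donor and nickel acceptor beads; 1 h, 37 °C, dark.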
# TRPML1 ag = agonists of human TRPML1 channel | TRPML1-expressing cells, Ca2+ dye fluorescence, FDSS; host cell line not named in the record; reference of the full effect not given here | activation, % (no concentration beside the values) | AID 624414 | actives 0.12% (n = 410,000); in the data active = activation above about 50%; inconclusive = about 30% to 50%; inactive = below about 30%; note: 0% is about no effect; the text of the record puts the active cut at 80%
#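 Calcium fluorescence on an FDSS kinetic reader gave the read-out. Tet-induced TRPML1-DL cells were plated overnight, dye-loaded (Ca8 with quencher, 45-90 min, room temperature, dark), then read 110 s after compound addition, and again 110 s after 4uM final 54-4 (EC80).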
# TRPML1 inh = human mucolipin-1 channel inhibition; activity change, negative = inhibition, % (concentration not given with the values); Q9GZU1; actives 0.02% (n = 390,000); TRPML1-inducible cells, Ca2+ dye fluorescence, FDSS; hits give low values; inhibition of EC80 agonist-evoked calcium signal; in the data active means activity change below about -50%; inconclusive means about -30% to -50%; inactive means above about -30%;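 note: stimulus is agonist 54-4 at its EC80 concentration; % is set by controls: 0 for no effect and ±100 for the full control effect; compound concentration not given in the record; the text of the record puts the active cut at -80%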
#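 TRPML1-DL cells, Tet-induced overnight (~16 h, 37 °C) at 1,500 cells/well, were loaded with Ca8 no-wash dye plus quencher for 45-90 min at room temperature. Compounds were pinned during FDSS kinetic reading; agonist 54-4 at EC80 (4 uM final) then added.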
# CtBP-E1A inh = inhibitors of CtBP/E1A interaction; AlphaScreen GST-E1A/His-CtBP binding, 1536-well; hits give low values; control for the full effect not named in the record; activity change, % (no concentration beside the values); actives 0.49% (n = 340,000); in the data active means activity change below about -65%; inconclusive means about -30% to -65%; inactive means above about -30%; note: % is set by controls: 0 for no effect and ±100 for the full control effect; compound concentration not given in the record
#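 Homogeneous bead-based format: GST-tagged E1A captured on glutathione donor beads, His-tagged CtBP on nickel acceptor beads; compounds precede bead addition by 2 h at 37 °C.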
# D2 potentiator = positive allosteric modulators of human D2 dopamine receptor. actives 0.23% (n = 360,000). potentiation, % (no concentration beside the values). DiscoveRx D2 beta-arrestin cells, luminescence, 90 min; 100% = 57 uM dopamine signal. P14416; active = potentiation of 50% or more; inconclusive = 30% to 50%; inactive = 30% or less;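 note: compound concentration not given in the record; tested on top of an EC20 dose of dopamine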
#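 D2 cells co-treated with compound plus 50 nM dopamine (EC20) for 90 min at 37 deg C to detect potentiation. Beta-arrestin recruitment was read as enzyme-fragment luminescence after 1 h at ambient temperature. Full response was set by 57 uM dopamine.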
# TRPV1 potentiator = potentiators of human vanilloid receptor 1 (TRPV1); potentiation, % at 8.33 µM; TRPV1-expressing cells, Fluo-8 calcium influx, capsaicin EC20 potentiation; host cell line not named in the record; control for the full effect not named in the record; actives 0.02% (n = 320,000); AID 540277; active means potentiation above 80%; inconclusive means 30% to 80%; inactive means below 30%; note: 0% is about no effect
#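 Fluo-8 calcium influx in TRPV1-expressing cells, kinetic read (ex 480/em 520 nm). Compound added and read 3 min for agonist activity, followed by capsaicin at EC20 final and 2 min further read for enhancement.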
# Active calls of the source: *; ? = inconclusive; / = not tested or not shown; & = joins results of further samples.
# Results follow in this order: Six1-Eya2 inh	TRPML1 ag	TRPML1 inh	CtBP-E1A inh	D2 potentiator	TRPV1 potentiator
1	c1ccc(CCN(Cc2ccccc2)Cc2nc(C3CC3)no2)cc1
  27	-0.1	4	33	2	-6
2	O=C1NC[C@H](CCCCN2C[C@H](Cc3ccccc3)N(CCC3CCCCC3)C(=O)C2=O)N(CCc2ccccc2)C1=O
  2	-0.4	/	1	/	/
3	CC(C)(C)OC(=O)N(CCc1ccccc1)Cc1cccc(OCc2cccc(NC(=O)/C=C/c3ccccc3)c2)c1
  2	0.4	2	-6	-1	/
4	CCO/C=C1/C(=O)N(Cc2ccccc2)C(=O)c2ccccc21
  -1	0.8	0	14	-2	-5
5	CSc1ccc(Cl)c(C(=O)N2CCN(CC(=O)N3CCCC3)CC2)c1
  0	-0.5	-8	-1	-13	/
6	COc1ccc(NC(=O)NCCN2CCN(c3cc(OC)ccc3OC)CC2)cc1
  0	0.0	4	3	-3	6
7	CC(C)C(C(=O)O)N1C(=O)/C(=C/C=C/c2ccco2)SC1=S (configuration not stated)
  -69*	-0.1	-4	6	-12	-4
8	CC(=O)Oc1ccc(S(=O)(=O)c2ccc(OC(C)=O)cc2)cc1
  ?	-0.2	0	2	9	15
9	Cc1cc(-c2nc3cccnc3s2)ccc1NS(=O)(=O)c1ccc2c(c1)OCCO2
  -2	-0.1	-9	-2	0	3
10	Cc1ccsc1/C=N/n1c(-c2cc(-c3ccccc3)n[nH]2)n[nH]c1=S
  -9	4.4	2	-26	-13	/

# The list goes on.
# Results follow in this order: Six1-Eya2 inh	TRPML1 ag	TRPML1 inh	CtBP-E1A inh	D2 potentiator	TRPV1 potentiator
11	COc1cc(/C=N/NS(=O)(=O)c2ccccc2)c(OC)c(OC)c1
  -18	/	/	-8	1	18
12	CN1/C(=C\C(=O)COC(=O)c2ccco2)C(C)(C)c2ccccc21
  4	-0.1	11	1	-2	-5
13	CC(C)(C)Nc1nc2nonc2nc1NC(C)(C)C
  9	2.1	15	8	6	-12
14	C=C(C)[C@@H]1CC=C(CN2CCC(CCOC)(C(=O)OCC)CC2)CC1
  1	0.7	-16	12	-12	-4
15	COc1ccc(/C=N/Nc2ncc(C(F)(F)F)cc2Cl)cc1OC
  8	1.5	-2	-10	-2	-12
16	COC(=O)c1cc(C(=O)OC)cc(N2C(=O)CC(NNC(=O)c3ccccc3Br)C2=O)c1 (configuration not stated)
  -4	0.9	-10	-4	-16	-1
17	COc1ccc(C2Nc3ccccc3C(=O)N2NS(=O)(=O)c2ccccc2)cc1OC (configuration not stated)
  19	-0.8	-10	4	1	-1
18	CCOc1ccc(NC(=O)CCC(=O)c2ccc(-c3ccccc3)cc2)cc1
  0	-0.1	10	0	-17	1
19	O=C(c1ccccc1F)N1CCCC(N2CCN(Cc3ccc4c(c3)OCO4)CC2)C1 (configuration not stated)
  2	0.2	-4	1	-27	/
20	CCOc1cc(/C=C2\SC(=O)N(c3ccc(O)cc3)C2=O)ccc1O
  -6	1.2	2	-1	2	-3

# The list continues:
# Results follow in this order: Six1-Eya2 inh	TRPML1 ag	TRPML1 inh	CtBP-E1A inh	D2 potentiator	TRPV1 potentiator
21	Cc1nn(-c2ccccc2)c2c1C1(C(=O)Nc3ccccc31)N1C(=N2)Sc2ccccc21 (configuration not stated)
  -16	2.5	?	-8	6	-24
22	CCCCc1c(-c2ccccc2OC)ncn1CCc1ccccc1
  -19	0.2	/	-1	/	/
23	COc1ccc(N2C(=O)CCC(C(=O)NCCCN3CCC(C)CC3)C2c2ccc(OC)c(OC)c2)cc1 (configuration not stated)
  2	0.2	-12	-19	0	2
24	COc1ccc2c(C)cc(N3CCCCCC3)nc2c1
  13	1.5	3	28	-10	-21
25	CCOC(=O)[C@H]1[C@H]2COc3ccccc3[C@@H]2N2C(=O)[C@@H](C)NC(=O)[C@@]12C
  1	-0.6	-15	6	-6	/
26	N=c1sccn1CC(=O)Nc1ccc(Cl)cc1[N+](=O)[O-]
  1	0.5	10	-4	-4	6
27	COc1ccc2c(c1)N(C)/C(=C/c1cccc[n+]1C)S2
  -4	1.1	4	-6	-1	27
28	c1ccc(-c2nnc(-c3ccco3)n2-c2ccccc2)cc1
  -1	0.1	21	1	-12	4
29	C=CCn1c(SCC(=O)N2CCCC2)nc2scc(-c3cccs3)c2c1=O
  1	-0.3	-6	-20	14	-15
30	CC(C)(C)c1cc(C(F)(F)F)nc(SCCCNC(=O)c2ccco2)n1
  -5	1.0	15	-2	-7	18

# Single records, from the list above:
# Cc1nn(-c2ccccc2)c2c1C1(C(=O)Nc3ccccc31)N1C(=N2)Sc2ccccc21 (configuration not stated) as listed: Six1-Eya2 inh = -16; TRPML1 ag = 2.5; TRPML1 inh = ?; CtBP-E1A inh = -8; D2 potentiator = 6; TRPV1 potentiator = -24
# COc1ccc2c(c1)N(C)/C(=C/c1cccc[n+]1C)S2 as listed: Six1-Eya2 inh = -4; TRPML1 ag = 1.1; TRPML1 inh = 4; CtBP-E1A inh = -6; D2 potentiator = -1; TRPV1 potentiator = 27

# The main list resumes, starting four compounds before the break.
# Results follow in this order: Six1-Eya2 inh	TRPML1 ag	TRPML1 inh	CtBP-E1A inh	D2 potentiator	TRPV1 potentiator
27	COc1ccc2c(c1)N(C)/C(=C/c1cccc[n+]1C)S2
  -4	1.1	4	-6	-1	27
28	c1ccc(-c2nnc(-c3ccco3)n2-c2ccccc2)cc1
  -1	0.1	21	1	-12	4
29	C=CCn1c(SCC(=O)N2CCCC2)nc2scc(-c3cccs3)c2c1=O
  1	-0.3	-6	-20	14	-15
30	CC(C)(C)c1cc(C(F)(F)F)nc(SCCCNC(=O)c2ccco2)n1
  -5	1.0	15	-2	-7	18
31	O=C(CCN1CCCCCC1)Nc1ccccc1F
  -2	0.5	0	1	-12	/
32	N#CCCN(C(=S)NC(=O)c1ccco1)c1ccccc1F
  7	-0.3	-2	13	-9	17
33	Cc1ccc(C(=O)OCC(=O)NC(C)C)cc1S(=O)(=O)N1CCOCC1
  8	0.1	-14	-2	0	-3
34	COc1cc(/C=N/NC(=O)C(=O)NCC2CCCO2)ccc1O (configuration not stated)
  2	-0.7	-1	-5	-3	15
35	COC(=O)Nc1ccc(S(=O)(=O)N2CCCC(C(=O)N3CCN(C)CC3)C2)cc1 (configuration not stated)
  5	0.7	12	2	-10	-20
36	Nc1ncn(-c2ncc(C(F)(F)F)cc2Cl)n1
  13	0.1	12	0	-1	4
37	Cc1ccc(N(CC(=O)NCc2ccncc2)S(C)(=O)=O)cc1Cl
  -2	0.3	12	-2	0	5
38	CCOC(=O)N1CCN(c2ncnc3scc(-c4ccccc4)c23)CC1
  -7	-0.4	-4	-1	13	-19
39	Cc1ccc(C(=O)CNc2ccccc2)cc1
  -5	-0.7	17	5	-34	-3
40	CC(NC(=O)OCc1ccccc1)c1ccccc1 (configuration not stated)
  16	0.1	4	4	-9	/

# Carrying on.
# Results follow in this order: Six1-Eya2 inh	TRPML1 ag	TRPML1 inh	CtBP-E1A inh	D2 potentiator	TRPV1 potentiator
41	CC(C)(C)C1=Nn2c(nnc2-c2n[nH]c3c2CCC3)SC1
  -17	2.6	17	-17	-16	-19
42	CCn1cc(C(=O)NCCCN2CCC(C)CC2)c2cc(OC)c(OC)cc2c1=O
  4	-0.1	4	-2	-6	/
43	O=C(NCc1ccc(N2CCCC2=O)cc1)C1CCC(=O)N(Cc2ccccc2F)C1 (configuration not stated)
  1	0.9	16	5	22	1
44	CC1(C)Cc2c(sc3nc(-c4ccccc4Cl)n(N)c(=O)c23)CO1
  1	-0.5	0	6	-1	0
45	O=C(CC1SC(=Nc2ccccc2)N(CCCCO)C1=O)NCc1ccccc1 (configuration not stated)
  1	4.6	-2	8	-6	3
46	O=C(N/N=C/c1ccc(OCCCF)cc1)c1cc(OCC(F)(F)F)ccc1OCC(F)(F)F
  19	0.2	-14	1	10	22
47	COc1cc(NC(=O)COC(=O)C2CC2)c(C)cc1[N+](=O)[O-]
  -5	0.4	-19	0	5	-9
48	CCOC(=O)N1CCC(N2Cc3cccc(C(=O)Nc4ccc(S(=O)(=O)N(CC)CC)cc4)c3C2=O)CC1
  0	-0.1	13	3	-5	8
49	Oc1cccc2ccc(/C=C/c3ccc(Br)s3)nc12
  2	-0.5	3	-23	-2	22
50	Cn1nc(C(F)(F)F)c(-c2ccc(Br)cc2)c1NC(=O)c1cccnc1
  -1	1.0	17	/	8	?

# Other compounds.
# Results follow in this order: Six1-Eya2 inh	TRPML1 ag	TRPML1 inh	CtBP-E1A inh	D2 potentiator	TRPV1 potentiator
51	COc1cccc(N=C2CC(C)(C)CC(=O)/C2=C(/O)c2ccccc2)c1
  -11	-0.7	5	-1	-21	2
52	Cc1cccc(Nc2ccc(C(=O)N3CCOCC3)cn2)c1
  3	-0.4	1	5	-3	-28
53	O=C(Nc1nc(-c2ccccn2)cs1)c1ccc(F)c(S(=O)(=O)N2CCOCC2)c1
  -93*	-0.6	16	-93*	2	-6
54	Cc1nccn1CCCNC(=O)C1CCC(=O)N(Cc2ccccc2F)C1 (configuration not stated)
  -7	0.5	0	-2	-29	-1
55	COc1ccccc1N1CCN(CCCNC(=O)Cn2ncc3c([nH]c4ccccc43)c2=O)CC1
  4	0.3&4.0	1&0	-19	-34	-1
56	CC(C)(C)c1ccc(C(=O)NCCC(=O)NCc2ccc(F)cc2)cc1
  -1	-0.7	7	0	-2	/
57	CCCn1c(N/N=C\C=C\c2ccccc2)nc2c1c(=O)[nH]c(=O)n2C
  -1	0.3	31	/	0	11
58	C#CCOCCOCCOCCNc1nc(N2CCN(C(=O)Cn3cc(CCO)nn3)CC2)nc(N2CCN(C(=O)[C@H](Cc3ccc(O)cc3)n3cc(CCO)nn3)CC2)n1
  -1	-0.4	3	9	-3	/
59	Cn1c2c(c(=O)n(C)c1=O)CN(CCN1CCNCC1)CN2
  1	-0.6	17	-2	-3	-7
60	Cc1ccc(C)c(NC(=O)NNC(=O)CCc2ccccc2)c1
  -4	-0.3	-26	3	-7	17
